# Screening results as filed in PubChem.
# KCNQ2 enhance = potentiators of rat KCNQ2 potassium channel | CHO-K1 KCNQ2, FluxOR thallium flux fluorescence; stronger effect = higher value | B-score at 10 µM | 0.54% of 310,000 active | AID 2239, 2010;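 active = fluorescence ratio B-score at least 3 SD of library B-scores, with initial fluorescence B-score within 3 SD, cut at about 5.3 in these data; same plate scores as AID 2156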;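 also: B-score of peak minus minimum over baseline fluorescence ratio after K+ and Tl+ stimulus; positive B-score means potentiation of KCNQ2 with more thallium influx and brighter signal; only the inactives scoring about 0 or higher are listed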
# Target sequence (O88943 whole entry, looked up): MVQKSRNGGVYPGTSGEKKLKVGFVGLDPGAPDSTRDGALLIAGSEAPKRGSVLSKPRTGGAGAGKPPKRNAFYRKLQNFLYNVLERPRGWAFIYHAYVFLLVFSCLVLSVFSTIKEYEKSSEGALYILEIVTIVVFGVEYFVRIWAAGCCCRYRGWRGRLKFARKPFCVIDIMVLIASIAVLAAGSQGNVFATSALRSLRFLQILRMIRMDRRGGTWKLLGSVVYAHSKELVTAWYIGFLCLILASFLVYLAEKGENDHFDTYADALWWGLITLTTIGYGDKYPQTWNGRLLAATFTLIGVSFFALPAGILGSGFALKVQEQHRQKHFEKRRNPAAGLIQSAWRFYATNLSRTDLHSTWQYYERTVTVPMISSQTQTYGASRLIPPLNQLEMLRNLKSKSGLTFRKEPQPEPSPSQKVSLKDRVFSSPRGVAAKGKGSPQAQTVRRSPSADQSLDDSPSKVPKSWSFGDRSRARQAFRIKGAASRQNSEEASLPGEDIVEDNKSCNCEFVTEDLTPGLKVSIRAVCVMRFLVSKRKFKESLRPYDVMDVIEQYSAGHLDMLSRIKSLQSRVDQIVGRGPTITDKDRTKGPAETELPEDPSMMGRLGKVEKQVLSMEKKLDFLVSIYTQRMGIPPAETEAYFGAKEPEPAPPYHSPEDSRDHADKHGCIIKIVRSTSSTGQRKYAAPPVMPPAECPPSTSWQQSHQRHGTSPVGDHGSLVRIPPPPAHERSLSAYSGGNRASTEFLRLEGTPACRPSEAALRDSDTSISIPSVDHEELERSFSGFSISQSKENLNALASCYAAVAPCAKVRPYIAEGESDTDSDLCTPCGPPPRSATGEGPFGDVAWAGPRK
# KCNQ2 enhance baseline = recorded beside KCNQ2 enhance, whose call it bears; B-score; compound at 10 µM; measured here: initial fluorescence intensity artifact check;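 brightness before thallium and not channel activity; 0 = typical well and far values either way flag optical interference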
# Active calls of the source: *; nt = no result given. The list is partial; the hit share may differ from the screen's.
SMILES,KCNQ2 enhance,KCNQ2 enhance baseline
Cc1ccc2cc3c(NC(=O)C4CCCO4)nn(CC(C)C)c3nc2c1 (stereo not given),0.01,0.41
CC(=O)Nc1cccc(NC(=O)c2cccc(S(=O)(=O)N3CCN(Cc4ccccc4)CC3)c2)c1,0.23,2.4
COc1cccc(-c2noc(CCC(=O)NCC3CCCO3)n2)c1 (stereo not given),0.12,-0.96
O=C(CSc1nc(C2CC2)nc2ccccc12)Nc1ccccc1,1.7,0.63
O=C(NC1CCCCC1)C(=S)NC1CCCCC1,1.7,2.2
CCCC(=O)Nc1cc(Cl)ccc1C,0.66,1.4
Cc1cccc(C(=O)NCc2nnc(SCC(=O)Nc3nnc(C)s3)n2C)c1,1,-0.16
CC1=C(C(=O)NCc2ccccc2)C(c2ccc(C)o2)n2ncnc2N1 (stereo not given),1.2,-0.91
Nc1ccc(O)cc1C(=O)OCC(=O)c1ccc(C2CCCCC2)cc1,2.9,-0.16
O=C(Nc1ccc(F)cc1)C1CCCN(S(=O)(=O)c2ccc(-n3cnnn3)cc2)C1 (stereo not given),1.1,0.8
O=S(=O)(NC1=NCCC1)c1cccc(NS(=O)(=O)c2ccc(OC(F)(F)F)cc2)c1,0.93,-2.4
CCOc1ccc(NC(=O)CCN2C(=O)C3CCCCC3C2=O)cc1OCC (stereo not given),0.12,0.51
CCOC(=O)C(=O)Nc1ccccc1C(=O)OCC,1.4,-0.22
O=C(O)CNC(=O)C12CC3CC(CC(Cl)(C3)C1)C2,0.73,1.5
CCN(CC)c1ccc(NC(=O)c2ccco2)cc1,2.4,0.93
Cc1ccc(/C=N/Nc2ccc3ccccc3n2)o1,0.15,0.62
O=C(Nc1ccc(F)cc1)c1ccc(CSc2ccc(Cl)cc2)o1,7.2*,-1.3*
C=CCc1ccccc1OCC(=O)OCCNC(=O)c1cccnc1,1.1,-1.8
COc1ccc(Nc2ncnc3c2cnn3-c2cccc(C)c2)cc1OC,0.04,-1.7
CCCn1c(SCC(=O)NCC2CCCO2)nc2c1c(=O)n(C)c(=O)n2C (stereo not given),0.21,1.1
CCNC(=O)CC1C(=O)N(c2cccc(C)c2)C(=O)N1CCC(C)C (stereo not given),1.2,-1.6
O=C(Cc1ccc(Cl)cc1)Nc1ccncc1,0.96,2
Cc1ccccc1-c1ncc(CN2CCC(CO)(CCCc3ccccc3)CC2)cn1,0.07,0.78
Nc1nc2ccccc2n1C(=O)c1ccccc1,0.47,-2
C=CCn1c(SCc2nc3ccccc3c(=O)[nH]2)nc2scc(C3CC3)c2c1=O,0.23,0.37

# New compounds follow:
SMILES,KCNQ2 enhance,KCNQ2 enhance baseline
CCOC(=O)C1=C(CCc2ccccc2)NC(=O)NC1c1cccc([N+](=O)[O-])c1 (stereo not given),0.75,2.4
COCCNC(=O)Cn1nc(-c2ccccc2C)ccc1=O,0.08,-0.33
CCOCC(=O)Nc1ncc(S(=O)(=O)c2ccc([N+](=O)[O-])cc2)s1,0.94,1.2
O=C(c1cc2sccc2n1Cc1ccccc1)N1CCc2ccccc21,0.37,-0.71
COc1cccc2c(=O)c3c(cnn3C)n(C)c12,2.1,-1.2
Cc1cc(C)n2nc(SCC(=O)N(C)Cc3ccccc3)nc2n1,0.32,-0.04
COC(=O)c1ccc(NC(=O)C23CC4CC(C2)CC(n2cncn2)(C4)C3)cc1,0.06,-0.42
Cc1ccccc1NC(=S)NCc1ccccc1,0.72,-0.11
CN1/C(=C\C=N\NC(=O)c2ccc(O)cc2)C(C)(C)c2ccccc21,0.1,-0.67
C/C(=N\Nc1nncc2ccccc12)c1ccc(O)cc1,0.41,0.02
Cc1nn(CC(=O)Nc2ccc(Cl)cn2)c(C)c1[N+](=O)[O-],0.26,1.8
O=C(c1ccc(N2C(=O)C3CC=C(Cl)CC3C2=O)cc1)N1CCCCC1 (stereo not given),1.7,-2.4
CCN(CC)S(=O)(=O)c1ccc(Cl)c(C(=O)NCc2ccco2)c1,0.92,-0.29
COc1ccc(C(=O)N/C(=C\c2cccs2)c2nc3ccccc3[nH]2)cc1OC,0.74,0.34
CN1[C@@H]2CC(OC(=O)[C@H](CO)c3ccccc3)C[C@H]1[C@@H]1O[C@@H]12 (stereo not given in full),0.86,nt
CCN(CC(=O)Nc1cc(Cl)ccc1C)C(=O)COc1cccc2c1OC(C)(C)C2,0.02,-0.07
Cc1cc(N)n2ncc(-c3ccccc3)c2n1,0.17,-0.1
Cc1cccc(C(=O)Nc2nnc(C3=COCCO3)o2)c1,18*,1.1*
O=C1/C(=C\c2ccco2)SC(=S)N1Cc1ccccc1,0.29,-1.3
CC(C)NC(=S)N/N=C/c1ccc2c(c1)OCCO2,0.87,-0.07
C[C@H](NC(=O)c1nc[nH]c1C(=O)N[C@@H](C)C(=O)OC(C)(C)C)C(=O)OCc1ccccc1,0.62,-3
Cc1c(C)n2c(SCC(=O)N3CCCCC3)nnc2[nH]c1=O,0.33,-0.28
Cc1csc(SCC(=O)NCc2ccccc2Cl)n1,1.4,-1.2
CCOC(=O)c1c(NC(=O)c2cccc(N3C(=O)CCC3=O)c2)sc(C)c1C,1.5,-0.37
CC[n+]1c(/C=C/Nc2ccccc2)oc2ccc(OC)cc21,1.2,1.4

# Continuation:
SMILES,KCNQ2 enhance,KCNQ2 enhance baseline
O=C(NCc1ccccn1)c1ccc(CNS(=O)(=O)c2cccc(C(F)(F)F)c2)cc1,0.83,0.11
CCCOc1ccc(-c2c(=O)n(O)c3ccccc3[n+]2[O-])cc1,2.7,2.7
Cc1nc2sc(C(c3ccccc3)N3CCOCC3)c(O)n2n1 (stereo not given),0.16,0.57
CCC(CC)c1nnc(NC(=O)CS(=O)(=O)c2ccc(C)cc2)s1,0.12,-0.24
O=[N+]([O-])c1cc2c(cc1Br)CCN2,0.06,2.6
O=C1/C(=C/c2cccs2)SC(=S)N1c1cccc(O)c1,0.6,0.16
CCOC(=O)N1CCC(NC(=O)c2cc(C(=O)Nc3ccc(S(=O)(=O)N4CCCCC4)cc3)ccc2CO)CC1,0.04,0.38
Cc1ccccc1NC(=O)NNC(=O)COc1ccc2ccccc2c1,0.7,-0.54
CC(C)OC(=O)c1cc(C(=O)c2cc(Br)ccc2O)coc1=N,0.01,0.17
COC(CNC(=O)C1CC(=O)N(CCc2ccccc2)C1)OC (stereo not given),0.89,0.01
CCOC(=O)COc1ccc2cc(C(=O)OCC)c(=O)oc2c1,0.71,1.1
CCOC(=O)C1CCN(C(=O)c2ccc(OC3CCN(C(=O)CCOC)CC3)cc2)CC1,0.87,-1
CCOC(=O)NNC(=O)CCn1c2c(c3ccccc31)CCCC2,0.18,0.64
Cc1cc(=O)oc2cc(OCCCC[n+]3ccccc3)ccc12,0.78,-1
C/C(=N/NS(=O)(=O)c1ccc(Cl)cc1)c1ccc2c(c1)OCO2,1.5,1.6
Cc1ccc(Nc2nnc(SC3CCOC3=O)s2)cc1 (stereo not given),1.4,0.51
O=C(/C=C/c1ccc(S(=O)(=O)N2CCOCC2)cc1)OCC(=O)c1ccc([N+](=O)[O-])cc1,0.08,-0.71
Cc1ccccc1C(=O)NNC(=O)CCCCC(=O)NNC(=O)c1ccccc1C,1.2,-0.89
O=C(CCN1C(=O)/C(=C\c2cccs2)SC1=S)NC1=NCCS1,0.63,0.94
Nc1nc(SCC(=O)NCCO)nc2sc3c(c12)CCCC3,0.95,0.88
CCOc1cc(/C=C2\SC(=N)N(c3nonc3N)C2=O)ccc1OCC(N)=O,2.2,-0.31
Cc1ccc(NS(=O)(=O)c2ccc(Br)s2)cc1S(=O)(=O)N1CCOCC1,0.53,-0.83
Cc1cc[n+](CC(=O)c2cccs2)cc1,2.1,0.72
CCOc1ccc(CCNC(=O)COC(=O)c2cc(=O)[nH]c3ccccc23)cc1OCC,0.37,0.11
COc1ccccc1CNC(=O)C/C(C)=N/NC(=O)Cc1ccccc1,0.41,0.03

# Remaining list, next part
SMILES,KCNQ2 enhance,KCNQ2 enhance baseline
Cc1ccc(C(=O)CSc2ncn[nH]2)cc1,0.77,-0.82
Cc1ccc(C2(c3noc(CN(C)CC4COCCO4)n3)CCCC2)cc1 (stereo not given),0.66,0.09
CCc1ccc(-c2nc(CS(=O)CC(=O)NCc3ccco3)c(C)o2)cc1 (stereo not given),2.5,1.2
CCc1ccccc1NC(=O)CNCC(=O)Nc1ccccc1CC,0.91,-1.3
CC(c1ccon1)N(C)Cc1cn(C)nc1-c1cccc(Cl)c1 (stereo not given),0.08,-1.3
CCOC(=O)CNC(=O)CN1C(=O)CCS(=O)(=O)c2ccccc21,0.66,0.79
COc1cccc2c(=O)n(CC(=O)N3CCc4ccccc43)ccc12,0.13,-0.29
O=C(Nc1cc(S(=O)(=O)N2CCCC2)ccc1Cl)C1=COCCO1,0.93,0.68
COc1ccc(N(CC(=O)NCCc2ccccc2)C(=O)c2csnn2)cc1,0.43,-1.4
Cc1ccc2nc(-c3ccccn3)[nH]c2c1,1.4,-1.5
CCOC(=O)c1ccc(OC)c(OC)c1Cl,0.47,0.17
O=C(CN1C(=O)C2C3C=CC(C3)C2C1=O)Nc1ccc2c(c1)OCCO2 (stereo not given),0.12,0.78
COc1cc(/C=C2/CC(C)OC2=O)c([N+](=O)[O-])cc1OC (stereo not given),0.26,-0.07
Cc1cccc(/C=N/NC(=O)c2cccc(NC(=O)c3ccccc3)c2)n1,0.21,0.21
CCn1c(SCC(N)=O)nnc1-c1ccc2[nH]c(C)c(C)c2c1,0.12,1.2
CN(CCCN1CCOCC1)C(=O)c1cc(COc2c(F)cccc2F)on1,0.1,-1.3
CC(=O)N1c2ccc(S(=O)(=O)NCCC(=O)NCCc3ccc(Cl)cc3)cc2CC1C (stereo not given),0.11,0.47
CN(C)c1ccc(NC2=C(Cl)C(=O)c3ccccc3C2=O)cc1,0.11,-0.95
Cc1ccc(-c2noc(CN(C(=O)C34CC5CC(CC(C5)C3)C4)C(C)C)n2)cc1,0.01,-0.18
CCC(=O)c1ccc2c(c1)N(CCCN(C)C)c1ccccc1S2,0.31,0.04
COc1cccc(/C=C/C(=O)N2CCN(c3ccccn3)CC2)c1,0.91,-0.87
CC(=O)c1cccc(NC(=O)c2ccc(N(Cc3ccccc3)S(C)(=O)=O)cc2)c1,1.6,-0.05
COc1ccc(C(CC(=O)Nc2ccc(C)cn2)N2Cc3ccccc3C2=O)cc1 (stereo not given),0.01,-2.3
CCCNCc1cc(OC)c(OCc2ccccc2)cc1Br,0.73,0.28
O=c1c2oc3ccccc3c2[nH]c(=S)n1-c1ccc(F)cc1,0.72,0.77

# Already shown: 16 of the compounds above.
SMILES,KCNQ2 enhance,KCNQ2 enhance baseline
Cc1ccc(C(=O)CSc2ncn[nH]2)cc1,0.77,-0.82
Cc1ccc(C2(c3noc(CN(C)CC4COCCO4)n3)CCCC2)cc1 (stereo not given),0.66,0.09
CCc1ccc(-c2nc(CS(=O)CC(=O)NCc3ccco3)c(C)o2)cc1 (stereo not given),2.5,1.2
CCc1ccccc1NC(=O)CNCC(=O)Nc1ccccc1CC,0.91,-1.3
CC(c1ccon1)N(C)Cc1cn(C)nc1-c1cccc(Cl)c1 (stereo not given),0.08,-1.3
CCOC(=O)CNC(=O)CN1C(=O)CCS(=O)(=O)c2ccccc21,0.66,0.79
COc1cccc2c(=O)n(CC(=O)N3CCc4ccccc43)ccc12,0.13,-0.29
O=C(Nc1cc(S(=O)(=O)N2CCCC2)ccc1Cl)C1=COCCO1,0.93,0.68
COc1ccc(N(CC(=O)NCCc2ccccc2)C(=O)c2csnn2)cc1,0.43,-1.4
Cc1ccc2nc(-c3ccccn3)[nH]c2c1,1.4,-1.5
CCOC(=O)c1ccc(OC)c(OC)c1Cl,0.47,0.17
O=C(CN1C(=O)C2C3C=CC(C3)C2C1=O)Nc1ccc2c(c1)OCCO2 (stereo not given),0.12,0.78
COc1cc(/C=C2/CC(C)OC2=O)c([N+](=O)[O-])cc1OC (stereo not given),0.26,-0.07
Cc1cccc(/C=N/NC(=O)c2cccc(NC(=O)c3ccccc3)c2)n1,0.21,0.21
CCn1c(SCC(N)=O)nnc1-c1ccc2[nH]c(C)c(C)c2c1,0.12,1.2
CN(CCCN1CCOCC1)C(=O)c1cc(COc2c(F)cccc2F)on1,0.1,-1.3

# Next part
SMILES,KCNQ2 enhance,KCNQ2 enhance baseline
O=C(NCc1ccccn1)Nc1ccc(Br)cc1,0.37,-2.2
Cc1nn(Cc2ccccc2Cl)c(Cl)c1/C=C/C(=O)OCC(=O)NC(N)=O,0.43,1.2
O=C(c1ccccc1)N1CC(COc2ccccc2)OC(c2cccnc2)O1 (stereo not given),0.99,-0.41
CC1(c2ccccc2)NC(=S)N2C1NC(=S)N2c1ccccc1 (stereo not given),0.09,-0.31
CNC(=O)CN(c1ccc(Oc2ccccc2)cc1)S(=O)(=O)c1ccc(C)cc1,0.8,0.13
Cc1ccc(Cl)cc1Nc1nc(-c2sc(NC(=O)c3ccccc3)nc2C)cs1,0.92,-0.64
COc1ccc(CNc2ncnc3cc(Cl)ccc23)cc1,1.4,-0.34
COC(=O)CSc1nc2sc(C)c(C)c2c(=O)n1C,1.1,-1.6
CCOC(=O)c1cc(NC(=O)COc2ccc([N+](=O)[O-])cc2)cc(C(=O)OCC)c1,0.67,-1.1
O=C(CNC(=O)c1cccs1)N/N=C/c1c[nH]c2ccccc12,2.2,0.08
COc1ccc(Br)cc1Cn1nnc(C(=O)Nc2ccc3c(c2)OCCO3)c1N,0.37,0.74
CC(OC(=O)CCc1nc2ccccc2c(=O)[nH]1)C(=O)c1ccc(Br)cc1 (stereo not given),1.1,0.64
O=C(Nc1cnccn1)c1cccc(C(F)(F)F)c1,0.15,0.76
Cc1cccc(C(=O)NC(=S)NNC(=O)COc2ccc(Cl)cc2)c1,0.16,1.5
O=C(NCCCN1CCCC1=O)c1ccc2c(c1)NC(=O)C(N1CCOCC1)S2 (stereo not given),0.43,0.34
CCc1ccccc1NC(=O)CCS(=O)(=O)c1ccc2c(c1)CCCN2C(C)=O,0.01,-0.6
Cc1ccc(C2(C)NC(=O)N(CC(=O)Nc3ccc4[nH]c(=O)[nH]c4c3)C2=O)cc1 (stereo not given),0.11,1.7
